Screening data (PubChem)
Sa growth inh = inhibitors of Staphylococcus aureus growth at 42 °C; S. aureus RN4220 growth, OD600, 20 h; stronger effect = lower value; relative growth, % (test concentration not listed); 170,000 compounds, 0.53% hits;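 active = growth at 42 °C up to 50% and 20 or more points under that at 30 °C, or under 10% at both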;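 note: 300 nL library stock went into each well; scaled to the means of positive and negative controls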
HCMV UL50-53 inh = inhibitors of HCMV UL50-UL53 nuclear egress complex interaction. 190,000 compounds, 0.15% hits. HTRF UL50-UL53 interaction, normalized percent inhibition. AID 1918969. inhibition, % (test concentration not listed);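 active = both replicates at 50% or more, plus weaker picks with an unusually low signal ratio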;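 note: stock transfer was 100 nL into about 20 µL; 0% = negative control wells and 100% = wells with untagged competitor protein; inactives centre near -12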
GIV Gai3 FP = blocks GIV peptide binding to rat Galpha-i3 | 210,000 compounds, 0.42% hits | Galpha-i3/FITC-GIV peptide fluorescence polarization, 90 min; stronger effect = lower value; scaled: aluminum fluoride 0%, vehicle 100% | percent of control (FP), % (test concentration not listed) | P08753;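 active = replicate mean at 85% of control or lower, very high polarization wells dropped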;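 note: wells of about 15 µL received 100 nL stock; the first replicate is given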
Target sequence (P08753 whole entry, looked up): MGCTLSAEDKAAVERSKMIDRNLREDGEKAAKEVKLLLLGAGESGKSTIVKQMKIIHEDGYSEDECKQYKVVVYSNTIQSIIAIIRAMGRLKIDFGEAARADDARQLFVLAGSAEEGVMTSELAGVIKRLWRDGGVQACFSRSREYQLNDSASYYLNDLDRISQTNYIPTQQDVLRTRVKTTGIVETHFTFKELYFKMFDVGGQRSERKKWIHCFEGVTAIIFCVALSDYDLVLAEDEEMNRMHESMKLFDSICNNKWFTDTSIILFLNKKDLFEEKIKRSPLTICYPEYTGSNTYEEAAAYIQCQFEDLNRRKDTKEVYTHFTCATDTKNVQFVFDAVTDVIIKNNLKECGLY
Sa growth inh second temp = second read-out of Sa growth inh, no call of its own (marks repeat the call); relative growth, %; measured here: growth at 30 °C;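 optical density after 20 h as mean of two plates; 100% = untreated growth and lower means inhibition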
An asterisk follows results filed as active; & = joins results of further samples.

For O=C1c2[nH]nc(-c3ccccc3O)c2C(c2ccccc2)N1Cc1ccco1 (stereo not given) the results were Sa growth inh 117, GIV Gai3 FP 107 and Sa growth inh second temp 82.
`O=C(C1CCCN(S(=O)(=O)c2ccccc2)C1)N1CCCc2ccccc21` (stereo not given) gave Sa growth inh 114, HCMV UL50-53 inh -5, GIV Gai3 FP 101 and Sa growth inh second temp 77.
Cc1ccc2c(c1)c(=O)c1ccccc1n2CCCC(=O)Nc1ccc(C)c(F)c1 was read as Sa growth inh 106, HCMV UL50-53 inh 8, GIV Gai3 FP 106 and Sa growth inh second temp 83.
Screening N=c1oc2ccccc2cc1-c1nc(-c2cc3cc(Br)ccc3oc2=O)cs1 returned HCMV UL50-53 inh -4 and GIV Gai3 FP 102.
Cc1sc2ncn(CC(=O)NCc3ccccn3)c(=O)c2c1S(=O)(=O)N1CCN(c2ncccn2)CC1 was read as Sa growth inh 94, HCMV UL50-53 inh -3, GIV Gai3 FP 106 and Sa growth inh second temp 88.
CC(C)(C)C(=O)NCCSc1nnnn1-c1ccccc1 was read as Sa growth inh 93, GIV Gai3 FP 104 and Sa growth inh second temp 94.
Screening COc1ccc(NS(=O)(=O)c2cc3c4c(c2)CC(=O)N4CCC3)cc1Cl returned Sa growth inh 100, GIV Gai3 FP 96 and Sa growth inh second temp 90.
`COc1ccccc1NC(=O)N1CCC(CN2CCc3ccccc3C2)CC1` gave Sa growth inh 105, GIV Gai3 FP 99 and Sa growth inh second temp 87.
Screening CCC(C)NC(=O)C1CCN(C(=O)c2cc3sccc3n2Cc2ccc(Cl)cc2)CC1 (stereo not given) returned Sa growth inh 113, HCMV UL50-53 inh -19, GIV Gai3 FP 99 and Sa growth inh second temp 86.
Screening CNC(=O)c1cc2c(oc1=O)CC(C)(C)CC2=O returned HCMV UL50-53 inh -25 and GIV Gai3 FP 97.
`CCOC(=O)C1CCN(C(=O)C2COc3ccccc3C2)CC1` (stereo not given) gave Sa growth inh 101, GIV Gai3 FP 99 and Sa growth inh second temp 94.
Cc1cc(=O)n(CC(=O)Nc2ccc(Cl)c(Cl)c2)c(-n2nc(C)cc2C)n1 was read as Sa growth inh 91, GIV Gai3 FP 108 and Sa growth inh second temp 96.
For COC(=O)c1ccsc1NC(=O)c1ccsc1NC(=O)c1cccnc1 the results were Sa growth inh 124, HCMV UL50-53 inh -2, GIV Gai3 FP 117 and Sa growth inh second temp 107.
N#CCNC(=O)COc1ccc(Cl)cc1 was read as Sa growth inh 103, HCMV UL50-53 inh 2, GIV Gai3 FP 99 and Sa growth inh second temp 93.
For O=C(Nc1ccc2c(c1)OCC(=O)N2Cc1ccccc1F)NC1CCCCC1 the results were Sa growth inh 115, HCMV UL50-53 inh -6, GIV Gai3 FP 98 and Sa growth inh second temp 87.
Screening CCCCN(CCCC)S(=O)(=O)c1ccc2c(c1)N(C(C)=O)CCCS2 returned HCMV UL50-53 inh -10 and GIV Gai3 FP 101.
Screening CC1CC(C)CN(C(=O)CN2C(=O)c3ccccc3S2(=O)=O)C1 (stereo not given) returned Sa growth inh 81, HCMV UL50-53 inh -6 and Sa growth inh second temp 83.
CC(C)NC(=O)NC(=O)CN1c2cccc3cccc(c23)S1(=O)=O was read as Sa growth inh 76, HCMV UL50-53 inh -55 and Sa growth inh second temp 97.
CN1CCN(c2ccc(/C=C3\Sc4ccccc4C3=O)cc2[N+](=O)[O-])CC1 was read as HCMV UL50-53 inh -31 and GIV Gai3 FP 103.
`Cc1ccc(C2CCN(C(=S)Nc3ccccc3C)C2)cc1` (stereo not given) gave Sa growth inh 98, GIV Gai3 FP 104 and Sa growth inh second temp 52.
`COc1ccc(CNS(=O)(=O)c2cc(-c3cc(C)no3)sc2C)cc1` gave HCMV UL50-53 inh -41 and GIV Gai3 FP 103.
`O=C(N=Nc1c(O)[nH]c2ccccc12)c1cccc(Br)c1` gave Sa growth inh 101, HCMV UL50-53 inh 9, GIV Gai3 FP 112 and Sa growth inh second temp 101.
Screening O=C(CCc1nnc2ccc(N3CCC4(CC3)OCCO4)nn12)Nc1ccc2c(c1)OCO2 returned Sa growth inh 94, HCMV UL50-53 inh 8, GIV Gai3 FP 104 and Sa growth inh second temp 91.
CCC(Cn1nnc2ccccc2c1=O)NC(=O)Nc1ccccc1Cl (stereo not given) was read as Sa growth inh 98, HCMV UL50-53 inh -17, GIV Gai3 FP 96 and Sa growth inh second temp 87.
CCOc1ccc2sc(C=NC(C)CC)c(O)c2c1 (stereo not given) was read as Sa growth inh 95, HCMV UL50-53 inh -46 and Sa growth inh second temp 71.
Screening Cc1cc(Cl)cc2c1C(=O)/C(=C\c1cccnc1)S2 returned Sa growth inh 86, HCMV UL50-53 inh -13, GIV Gai3 FP 105 and Sa growth inh second temp 86.
`COc1cc2nc(C3CCC3)n(NC(=O)c3ccco3)c(=O)c2cc1OC` gave Sa growth inh 91, HCMV UL50-53 inh 1, GIV Gai3 FP 100 and Sa growth inh second temp 86.
Screening CCc1nc2cc(Cl)c(Cl)cc2[nH]1 returned Sa growth inh 108, HCMV UL50-53 inh -10, GIV Gai3 FP 104 and Sa growth inh second temp 81.
Screening CCOC(=O)c1c(C)c(C#N)c(NC(=O)c2ccc(Cl)cc2Cl)n1-c1ccc(C)cc1 returned Sa growth inh 82, HCMV UL50-53 inh -13, GIV Gai3 FP 99 and Sa growth inh second temp 78.
For COc1ccc(NC(=O)Nc2cc3c(cc2N2CCCC2)n(C)c(=O)n3C)c(OC)c1 the results were HCMV UL50-53 inh -1 and GIV Gai3 FP 95.
`CC(C)(CC(=O)O)CC(=O)NC1Cc2ccccc2C1` gave Sa growth inh 114, HCMV UL50-53 inh 0, GIV Gai3 FP 103 and Sa growth inh second temp 95.
CC(C)NC(=O)COc1ccc(-c2nn(C)c(=O)c3ccccc23)cc1 was read as Sa growth inh 92, HCMV UL50-53 inh -29, GIV Gai3 FP 103 and Sa growth inh second temp 87.
CCOc1ccc(Nc2c(S(=O)(=O)c3ccccc3)cnc3ccc(OCC)cc23)cc1 was read as Sa growth inh 87, GIV Gai3 FP 98 and Sa growth inh second temp 70.
Cc1ccc2oc(=O)c3cnn(CC(=O)Nc4cccnc4)c3c2c1 was read as Sa growth inh 81, GIV Gai3 FP 109 and Sa growth inh second temp 89.
CCOC(=O)c1c(CN2CCOCC2)n(-c2ccccc2)c2cc(Br)c(OC)cc12 was read as HCMV UL50-53 inh -11 and GIV Gai3 FP 99.
For COc1cc2c(cc1OC)C(c1ccc(Cl)cc1)N(c1ccc(C)c(F)c1)C(=O)C2 (stereo not given) the results were Sa growth inh 107, HCMV UL50-53 inh -30, GIV Gai3 FP 95 and Sa growth inh second temp 87.
For COc1ccc(C2CC(=O)n3nc(-c4ccccc4)nc3S2)cc1OC (stereo not given) the results were Sa growth inh 90, GIV Gai3 FP 100 and Sa growth inh second temp 79.
`Cc1nn(-c2ccccc2)c2c1cc1c(=O)n(C)c(=O)nc-1n2-c1cccc(Cl)c1` gave Sa growth inh 110, HCMV UL50-53 inh -28, GIV Gai3 FP 102 and Sa growth inh second temp 84.
For Cc1ccc(-c2nnn3c2nc(NC2CCC(C)CC2)c2ccccc23)cc1 (stereo not given) the results were Sa growth inh 97, HCMV UL50-53 inh -10, GIV Gai3 FP 112 and Sa growth inh second temp 102.
For O=C(Nc1ccc2ncsc2c1)c1ccc(S(=O)(=O)N2CCCC2)cc1 the results were HCMV UL50-53 inh 4 and GIV Gai3 FP 99.

An excerpt from above in order of molecular weight, high to low:
CCOc1ccc(Nc2c(S(=O)(=O)c3ccccc3)cnc3ccc(OCC)cc23)cc1 was read as Sa growth inh 87, GIV Gai3 FP 98 and Sa growth inh second temp 70.
For Cc1ccc(-c2nnn3c2nc(NC2CCC(C)CC2)c2ccccc23)cc1 (stereo not given) the results were Sa growth inh 97, HCMV UL50-53 inh -10, GIV Gai3 FP 112 and Sa growth inh second temp 102.
Cc1ccc2oc(=O)c3cnn(CC(=O)Nc4cccnc4)c3c2c1 was read as Sa growth inh 81, GIV Gai3 FP 109 and Sa growth inh second temp 89.

Returning to the listing; the 2 compounds before the break are reprinted first.
For Cc1ccc(-c2nnn3c2nc(NC2CCC(C)CC2)c2ccccc23)cc1 (stereo not given) the results were Sa growth inh 97, HCMV UL50-53 inh -10, GIV Gai3 FP 112 and Sa growth inh second temp 102.
For O=C(Nc1ccc2ncsc2c1)c1ccc(S(=O)(=O)N2CCCC2)cc1 the results were HCMV UL50-53 inh 4 and GIV Gai3 FP 99.
Screening CCc1ccccc1NC(=O)CSc1nc2ccccc2nc1Cc1cccc(OC)c1 returned Sa growth inh 80, GIV Gai3 FP 101 and Sa growth inh second temp 85.
Screening Cc1ccc(-c2nn(-c3ccc(F)cc3F)c3c2cnc2ccc(F)cc23)cc1 returned Sa growth inh 74, GIV Gai3 FP 95 and Sa growth inh second temp 85.
For Nc1cc(-c2ccccc2)[nH]n1 the results were Sa growth inh 96, HCMV UL50-53 inh -26, GIV Gai3 FP 109 and Sa growth inh second temp 87.
Screening COc1ccccc1-c1nnc(C2CCN(S(=O)(=O)c3ccc(CC(C)C)cc3)CC2)o1 returned Sa growth inh 110, HCMV UL50-53 inh -36, GIV Gai3 FP 109 and Sa growth inh second temp 63.
Screening Cc1ccc(C)c(OCC(=O)Nc2ccccc2C#N)c1 returned Sa growth inh 113, HCMV UL50-53 inh -20, GIV Gai3 FP 99 and Sa growth inh second temp 97.
For COc1cc(OC)cc(C(=O)N2CCN(S(=O)(=O)c3ccc4c(c3)NC(=O)CO4)CC2)c1 the results were HCMV UL50-53 inh -30 and GIV Gai3 FP 106.
Screening COC(=O)c1ccccc1NC(=O)C1Cc2ccccc2N1C(C)=O (stereo not given) returned HCMV UL50-53 inh 9 and GIV Gai3 FP 101.
For COc1ccc(CSc2nnc(SC(C)C(N)=O)s2)cc1 (stereo not given) the results were Sa growth inh 63, HCMV UL50-53 inh -17 and Sa growth inh second temp 73.
`Cc1ccc(-c2cc(Nc3ccc4c(c3)OCO4)nc(C)n2)cc1` gave HCMV UL50-53 inh 3 and GIV Gai3 FP 103.
CCCN1C(=O)C2(c3ccccc31)c1c(oc3ccc(C)cc3c1=O)C(=O)N2CCOC (stereo not given) was read as Sa growth inh 112, HCMV UL50-53 inh -32, GIV Gai3 FP 103 and Sa growth inh second temp 85.
Screening COC(=O)c1ccc(NC(=O)CSc2nc(=O)n(Cc3ccco3)c3c2CCC3)cc1 returned Sa growth inh 92, GIV Gai3 FP 107 and Sa growth inh second temp 79.
Clc1cccc(-c2nnc(-c3ccccc3)o2)c1 was read as Sa growth inh 90, HCMV UL50-53 inh -2, GIV Gai3 FP 105 and Sa growth inh second temp 74.
`CNC(=O)Cc1ccc(-n2c(=O)c3ccccc3n(CC(=O)Nc3ccccc3)c2=O)cc1` gave HCMV UL50-53 inh 6 and GIV Gai3 FP 109.
For O=C(O)CC(Nc1ncnc2ccccc12)C(=O)O (stereo not given) the results were Sa growth inh 98, HCMV UL50-53 inh -4, GIV Gai3 FP 109 and Sa growth inh second temp 89.
Screening COc1ccc2c(COC(=O)CNS(=O)(=O)c3ccccc3)cc(=O)oc2c1 returned Sa growth inh 98, HCMV UL50-53 inh -18 and Sa growth inh second temp 83.
C=Cc1ccc(Cn2nc3n(CCC(C)C)c(=O)c4ccc(C(=O)NC(C)C)cc4n3c2=O)cc1 was read as HCMV UL50-53 inh -21 and GIV Gai3 FP 106.
Screening Cc1ccc(Nc2ncnc3c2nc2n3CCCC2)c(Br)c1 returned Sa growth inh 93, HCMV UL50-53 inh 19, GIV Gai3 FP 115&102 and Sa growth inh second temp 75.
Nc1cc(=O)[nH]c(SCCC(=O)O)n1 was read as Sa growth inh 100, HCMV UL50-53 inh -25, GIV Gai3 FP 95 and Sa growth inh second temp 88.
Screening Cc1ccccc1-c1noc(CSc2ncccn2)n1 returned Sa growth inh 104, HCMV UL50-53 inh -20 and Sa growth inh second temp 98.
CCC(C)NS(=O)(=O)c1ccc(-n2cnnn2)cc1 (stereo not given) was read as Sa growth inh 78, HCMV UL50-53 inh 11, GIV Gai3 FP 105 and Sa growth inh second temp 89.
O=C(CSC(=O)c1ccccc1)Nc1ccc2ccccc2c1 was read as Sa growth inh 86, HCMV UL50-53 inh 4 and Sa growth inh second temp 89.
For CCN1CCN(c2cc(C(=O)O)c3cc(NS(=O)(=O)c4ccc(C)cc4C)ccc3n2)CC1 the results were HCMV UL50-53 inh -56 and GIV Gai3 FP 103.
`Cc1ccc(CNC(=O)CCn2cnc3c(c(C)c(C)n3-c3ccccc3)c2=O)cc1` gave HCMV UL50-53 inh -22 and GIV Gai3 FP 103.
O=C(Nc1ccccc1Cl)c1ccc(CN2C(=O)CCn3nccc32)cc1 was read as HCMV UL50-53 inh -12 and GIV Gai3 FP 104.
`Cc1cc(C(=O)NCc2ccc(N3CCN(C)CC3)cc2)nn1C` gave Sa growth inh 97, HCMV UL50-53 inh -16, GIV Gai3 FP 105 and Sa growth inh second temp 94.
Screening O=C(C(Sc1nnc(C2CC2)n1C1CC1)c1ccccc1)N1CCOCC1 (stereo not given) returned Sa growth inh 92, HCMV UL50-53 inh -10 and Sa growth inh second temp 84.
Screening Cn1c(-c2cccs2)c(CNC(=O)NCc2ccccc2)c2ccccc21 returned Sa growth inh 107, HCMV UL50-53 inh -20, GIV Gai3 FP 103 and Sa growth inh second temp 73.
For CCn1c(SCC(=O)N(C)CC(=O)Nc2ccccc2Cl)nnc1-c1ccco1 the results were Sa growth inh 74, HCMV UL50-53 inh -5 and Sa growth inh second temp 94.
Screening COc1cc(OC)c(NC(=O)C(c2ccccc2)N2Cc3ccccc3C2=O)cc1Cl (stereo not given) returned Sa growth inh 109, GIV Gai3 FP 112 and Sa growth inh second temp 95.
